Screening results (PubChem)
KCNK9 block: blocks the human KCNK9 two-pore domain potassium channel | 310,000 tested, 1.2% active | B-score at 10 µM | Q9NPC2 | HEK293 KCNK9, FluxOR thallium flux fluorescence; active compounds read low;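 active means ratio B-score over 3 SD below the library mean, with starting fluorescence within 5 SD of its mean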;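 further: negative B-score means less thallium flux so channel inhibition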
KCNK3 block: human KCNK3 channel inhibition, primary screen; O14649; CHO-KCNK3 thallium flux, FluxOR fluorescence; active compounds read low; B-score at 10 µM; 340,000 tested, 0.84% active;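 active means B-score under library mean minus 4 SD, starting fluorescence ratio at most library mean plus 5 SD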;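 further: more negative B-score means stronger inhibition of thallium flux through KCNK3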
RGS4 block: inhibitors of human RGS4; P49798; HEK293 M3R/RGS4 inducible, Fluo-4 calcium flux; active compounds read high; triggered by carbachol at its EC20; B-score at 10 µM; 310,000 tested, 0.45% active;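 active means B-score, a plate-corrected calcium signal, over three deviations above library mean, with baseline fluorescence within five deviations of library mean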;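 further: RGS4 expression induced by doxycycline in cells with stable M3 receptor; B-score is computed from the integrated fluorescence ratio over baseline after carbachol; higher B-score means a larger calcium signal and so more RGS4 inhibition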
Target sequence (P49798 whole entry, looked up): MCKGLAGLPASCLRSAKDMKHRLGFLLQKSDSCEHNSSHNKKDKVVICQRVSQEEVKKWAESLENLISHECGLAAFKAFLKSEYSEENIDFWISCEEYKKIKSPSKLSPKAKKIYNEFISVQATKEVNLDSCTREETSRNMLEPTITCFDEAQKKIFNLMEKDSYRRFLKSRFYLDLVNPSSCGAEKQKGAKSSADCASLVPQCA
HDAC3 inh: human HDAC3 inhibition; inhibition, % at 8.3 µM; recombinant HDAC3, fluorogenic peptide/trypsin coupled, fluorescence; AID 2718; 320,000 tested, 0.15% active; O15379; in the data active means inhibition above about 26%, passing the limit was not always enough; inconclusive means no clear call, values can overlap the other calls
Target sequence (O15379 whole entry, looked up): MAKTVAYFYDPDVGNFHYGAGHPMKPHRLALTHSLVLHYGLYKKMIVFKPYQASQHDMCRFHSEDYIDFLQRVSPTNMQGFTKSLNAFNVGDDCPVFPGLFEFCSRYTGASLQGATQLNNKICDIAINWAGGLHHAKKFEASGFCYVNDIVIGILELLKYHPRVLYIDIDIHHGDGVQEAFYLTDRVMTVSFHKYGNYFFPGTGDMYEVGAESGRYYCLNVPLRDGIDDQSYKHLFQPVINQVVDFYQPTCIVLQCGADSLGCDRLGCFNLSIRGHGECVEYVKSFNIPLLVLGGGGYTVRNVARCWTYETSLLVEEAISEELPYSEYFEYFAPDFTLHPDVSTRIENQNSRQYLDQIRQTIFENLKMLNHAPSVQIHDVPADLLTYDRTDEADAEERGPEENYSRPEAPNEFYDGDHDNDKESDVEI
SKKanGAS inh: inhibitors of SKKanGAS S. pyogenes growth in kanamycin (SK-promoter or general growth effect); BacTiter-Glo, 6 h; inhibition, % at 7.5 µM; 300,000 tested, 1.3% active; AID 1662;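 active means mean replicate score, as percent of positive control median, at least 50; inconclusive means mean below 50 but one replicate at or above 50; inactive means mean and every replicate below 50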;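 further: strain carries kanamycin resistance gene driven by streptokinase promoter and grows in 40 µg/ml kanamycin; loss of luminescence reflects streptokinase promoter inhibition or plain growth inhibition; 0% = median of DMSO wells and 100% = positive control at its reference dose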
RGS4 pot: RGS4 potentiation or activation. HEK293 M3R/inducible RGS4, carbachol calcium flux Fluo4; active compounds read low. B-score at 10 µM. 310,000 tested, 0.92% active. AID 463111;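 active means B-score of the integrated calcium signal more than 4 SD below the library mean, with starting fluorescence not abnormally high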;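 further: negative B-score means reduced calcium response which marks RGS4 activation or potentiation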
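Material: Inducible-RGS4 HEK293 cells carrying M3 receptor; also added: carbachol at ECmax as muscarinic agonist stimulus; incubation: compound preincubation 20 min at room temperature before agonist; signal: Fluo4-AM (2 µM) calcium-flux fluorescence, kinetic read; measure: integrated calcium ratio converted to B score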
ANO1 activ: activators or potentiators of mouse TMEM16A chloride channel. HEK293 TMEM16A/YFP-H148Q/I152L, iodide quench fluorescence; active compounds read low. B-score at 10 µM. 340,000 tested, 0.3% active. AID 623877;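 active means fluorescence-ratio B-score plate-corrected deviation score at least 3 library SD below zero, with starting fluorescence score within 5 deviations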;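 further: channel opened by trigger with iodide after compound preincubation; score built on the fluorescence ratio of max minus min over baseline; more negative score means more quench and so TMEM16A activation or potentiation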
ANO1 block: blocks the mouse calcium-activated chloride channel TMEM16A; normalized B-score (activity score, 25-100; higher = stronger inhibition) at 10 µM; HEK293 TMEM16A/YFP iodide influx fluorescence, ionomycin; 310,000 tested, 1.2% active; Q8BHY3;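 active means ratio plate-corrected score three or more library SD toward inhibition, starting fluorescence score within five deviations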;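 further: score derived from kinetic fluorescence span divided by baseline fluorescence per well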
The depositor's hits bear a star; i = inactive; ? = inconclusive; & = joins results of further samples. Only part of the results is shown (hit frequency here may not be typical).

SMILES	KCNK9 block	KCNK3 block	RGS4 block	HDAC3 inh	SKKanGAS inh	RGS4 pot	ANO1 activ	ANO1 block
COC(=O)c1cc(C(=O)c2ccc(C(C)(C)C)cc2)c[nH]1	i	i	i	0	3	i	i	25*
Cc1cc(C(=O)OCC(=O)Nc2ccc(F)c(F)c2)c(C)o1	i	i	i	4	5	i	i	i
COc1ccccc1-c1ccc(SCc2cccc(F)c2)nn1	i	i	i	-15	0	i	i	i
Cc1ccccc1OCC(=O)Nc1ccc(N2CCN(C(=O)C(C)C)CC2)c(Cl)c1	i	i	i	3	10	i	i	i
Cc1ccccc1NC(=S)NCCSc1ccc(Cl)cc1	i	i	i	0	29	i	i	i
CNCC[C@H](Oc1cccc2ccccc12)c1cccs1	i	i	i	5&0	1&5	i	i	i
O=C(Nc1nc(=O)c2ccccc2s1)c1ccc(Cl)cc1	i	i	i	-2	18	i	i	i
O=C(Nc1cccc(C(F)(F)F)c1)n1cc(-c2ccccn2)c(N2CCOCC2)n1	i	i	i	4	5	i	i	i
COc1ccc(OC)c(NC(=O)CCCSc2ccccc2)c1	i	i	i	-3	0	i	i	i
CSc1nc(-c2ccccc2)[nH]c(=S)c1C(C)=O	i	i	i	2	7	i	i	i

Reformatted as comma-separated lines: part of the list above
Molecule,KCNK9 block,KCNK3 block,RGS4 block,HDAC3 inh,SKKanGAS inh,RGS4 pot,ANO1 activ,ANO1 block
COc1ccccc1-c1ccc(SCc2cccc(F)c2)nn1,i,i,i,-15,0,i,i,i
Cc1ccccc1OCC(=O)Nc1ccc(N2CCN(C(=O)C(C)C)CC2)c(Cl)c1,i,i,i,3,10,i,i,i
Cc1ccccc1NC(=S)NCCSc1ccc(Cl)cc1,i,i,i,0,29,i,i,i
CNCC[C@H](Oc1cccc2ccccc12)c1cccs1,i,i,i,5&0,1&5,i,i,i
O=C(Nc1nc(=O)c2ccccc2s1)c1ccc(Cl)cc1,i,i,i,-2,18,i,i,i

Some of the entries so far, with values under each structure:
Below each compound – KCNK9 block	KCNK3 block	RGS4 block	HDAC3 inh	SKKanGAS inh	RGS4 pot	ANO1 activ	ANO1 block
> Cc1cc(C(=O)OCC(=O)Nc2ccc(F)c(F)c2)c(C)o1
→ i	i	i	4	5	i	i	i
> COC(=O)c1cc(C(=O)c2ccc(C(C)(C)C)cc2)c[nH]1
→ i	i	i	0	3	i	i	25*
> COc1ccccc1-c1ccc(SCc2cccc(F)c2)nn1
→ i	i	i	-15	0	i	i	i
> CSc1nc(-c2ccccc2)[nH]c(=S)c1C(C)=O
→ i	i	i	2	7	i	i	i
> CNCC[C@H](Oc1cccc2ccccc12)c1cccs1
→ i	i	i	5&0	1&5	i	i	i
> Cc1ccccc1NC(=S)NCCSc1ccc(Cl)cc1
→ i	i	i	0	29	i	i	i

Later entries:
SMILES	KCNK9 block	KCNK3 block	RGS4 block	HDAC3 inh	SKKanGAS inh	RGS4 pot	ANO1 activ	ANO1 block
Cc1noc(C)c1COC(=O)c1cccc(S(=O)(=O)N2c3ccccc3CC2C)c1 (configuration not stated)	i	i	i	13	6	-7.4*	i	100*
COc1ccc(NC(=O)C(=O)NNC(=O)c2ccc(Cl)cc2Cl)cc1	i	i	i	2	8	i	i	i
Fc1cc(F)c2nc(Nc3nc4c(F)cccc4s3)sc2c1	i	i	i	2	6	i	i	100*
CCc1ccc2c(c1)Sc1ccccc1CC2N1CCN(C)CC1 (configuration not stated)	i	i	i	11	11	-8.9*	i	i
Cc1ccc(-c2cc(C(=O)Nc3ccc4c(c3)OCCO4)c3ccccc3n2)cc1	i	i	i	3	7	i	i	i
CCn1c(SCC(N)=O)nc2sc3c(c2c1=O)CCCC3	i	i	i	-11	1	i	i	i
Cc1ccccc1NC(=O)CSc1nc2cc3c(cc2cc1C)CCC3	i	i	i	-1	-17	i	i	i
Cc1ccccc1C(=O)OC1OC(=O)C(Cl)=C1Nc1ccccc1 (configuration not stated)	i	i	i	13	4	i	i	i
COc1ccc(N2C(=O)C3CCCCC3C2=O)cc1NC(=O)c1ccccc1 (configuration not stated)	i	i	i	-11	-5	i	i	i
CC(C)(C)CC(=O)Nc1cccc2c1CCCC2	i	i	i	-2	4	i	i	i
Cc1cccc(N2CCN(c3nc(C)cc(C)c3C#N)CC2C)c1 (configuration not stated)	-8.4*	i	i	3	22	i	i	i
O=C(Cc1cccs1)Nn1c(Cc2cccs2)nc2ccccc2c1=O	i	i	i	5	12	i	i	i
Cn1c(C(=O)OC(C(=O)NC2CCCCC2)c2ccccn2)cc2sccc21 (configuration not stated)	i	i	i	-3	0	i	i	i
O=[N+]([O-])c1ccc(-c2nc(-c3cccs3)c(-c3cccs3)[nH]2)cc1	i	-12*	i	-1	?	-8.9*	i	i
O=C(Nc1ccccc1)Nc1ccc2snnc2c1	i	i	i	2	-3	i	i	i
CCCN(CCC)C1=N/C(=C\c2ccco2)C(=O)N1c1ccccc1	-7.7*	i	i	6	0	i	i	i
CC(C)c1nc2sc3c(=S)nc[nH]c3c2c2c1CCC2	i	i	i	-3	26	i	i	i
CCCCCn1c(N)c(-c2nc3ccccc3s2)c2c([N+](=O)[O-])nn(CC)c(=O)c21	i	i	i	-7	54*	i	i	i
CCc1ccc(-n2cccc2/C=C2/C(=N)N3C(=NC2=O)SN=C3S(C)(=O)=O)cc1	i	i	i	6	26	i	i	100*
Nc1nnc(-c2cccc(Cl)c2Cl)c(N)n1	i	i	i	5	16	i	i	i
CCCCOC(=O)c1ccc(NC(=S)NC(=O)c2c(Cl)cnn2C)cc1	i	i	i	4	16	i	i	i
CC(NC(=O)c1ccc(F)cc1)c1ccc2c(c1)CCCC2 (configuration not stated)	i	i	i	-7	3	i	i	i
